MLL AF4-AF9 inh = MLL-AF4/AF9 protein interaction inhibition; P42568; AlphaScreen, biotin-AF4 peptide binding to FLAG-AF9; inhibition, % at 10 µM; 0.47% of 350,000 active; AID 651704;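 active = every replicate reaching a set inhibition limit, whatever the replicate mean, cut at about 25% in these data; inconclusive = mean inhibition reaches that limit but some replicates miss it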;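 note: 0% = plate neutral control median and 100% = total signal loss; the record names both 10 and 1 µM as test concentration; the first replicate is given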
Target sequence (P42568 whole entry, looked up): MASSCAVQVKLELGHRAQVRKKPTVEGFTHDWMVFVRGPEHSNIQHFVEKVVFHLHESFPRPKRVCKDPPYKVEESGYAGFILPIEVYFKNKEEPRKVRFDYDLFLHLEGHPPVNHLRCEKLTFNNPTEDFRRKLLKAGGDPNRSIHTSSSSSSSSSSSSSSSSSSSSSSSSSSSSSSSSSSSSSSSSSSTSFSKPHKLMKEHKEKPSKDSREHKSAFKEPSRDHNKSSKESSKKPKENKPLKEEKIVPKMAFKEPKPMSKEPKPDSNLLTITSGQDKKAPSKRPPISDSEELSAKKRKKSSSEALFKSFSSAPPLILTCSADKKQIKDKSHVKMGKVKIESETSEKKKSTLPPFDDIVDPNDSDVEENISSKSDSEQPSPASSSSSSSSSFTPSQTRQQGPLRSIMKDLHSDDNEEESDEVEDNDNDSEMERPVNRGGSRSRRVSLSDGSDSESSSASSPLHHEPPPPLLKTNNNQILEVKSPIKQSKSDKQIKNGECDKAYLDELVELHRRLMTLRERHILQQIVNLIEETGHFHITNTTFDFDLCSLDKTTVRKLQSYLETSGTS
rRNA inh HTS = selective bacterial rRNA inhibition in E. coli; E. coli WT GFP vs humanized-ribosome RFP mutants, fluorescence, 24 h; stronger effect = lower value; DMSO median 0, no signal -100; GFP signal change (wild-type ribosome), % (test concentration not listed); 1.6% of 350,000 active;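 active = significant combined selectivity score with lowered wild-type GFP, culture density cut under 30%, mutant RFP and density less affected; inactive = any of these conditions unmet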; note: one replicate is shown; some compounds called inactive have numbers as strong as hits
rRNA inh HTS OD600 = also measured in rRNA inh HTS; calls as there; OD600 change, %; measured here: OD600 growth;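 optical density of the mix in the first replicate; 0 = DMSO median and -100 = no signal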
rRNA inh HTS RFP = further read-out of rRNA inh HTS, marked with its call; RFP signal change, %; measured here: RFP humanized mutant strains;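 first replicate; 0 = DMSO median and -100 = no signal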
Numbers without * were called inactive; ? = inconclusive; & = joins results of further samples.

(1) COc1ccc(NC(=O)Nc2ccc3c(c2)CC(=O)N([C@@H](C)CO)C[C@H](C)[C@@H](CN(C)S(C)(=O)=O)O3)cc1
(2) C[C@H](CO)N1C[C@H](C)[C@@H](CN(C)C(=O)Nc2cccc(Cl)c2Cl)OCc2ccccc2-c2c(n(C)c3ccccc23)C1=O
(3) O=C(c1cnccn1)N1CC(=O)N2[C@@H](CO)[C@H](c3ccc(C#CC4CCCC4)cc3)[C@@H]2C1
(4) CCCNC(=O)C[C@@H]1CC[C@@H]2[C@@H](COc3ccc(NC(=O)c4cscn4)cc3C(=O)N2C)O1
(5) O=C(Nc1cc(F)ccc1F)N[C@H]1CC[C@H](CCn2cc(C3CCCC3)nn2)O[C@H]1CO
(6) Cc1ccccc1S(=O)(=O)N1[C@H](C#N)[C@H](c2ccc(C#CC3CCCC3)cc2)[C@H]1CO

assay / entry,1,2,3,4,5,6
MLL AF4-AF9 inh,3.5,0.2,3.2,-2.8,-0.8,0.0
rRNA inh HTS,0,3,7,0,-4,8
rRNA inh HTS OD600,4,1,17,0,-7,-22
rRNA inh HTS RFP,1.9,0.4,-1.4,1.4,0.5,34

(7) C[C@@H]1CCCCO[C@@H](CN(C)S(=O)(=O)c2ccc(Cl)cc2)[C@H](C)CN([C@H](C)CO)C(=O)c2cc(NC(=O)C3CCCCC3)ccc2O1
(8) CN1C(=O)c2cc(NC(=O)C3CC3)ccc2OC[C@H]2O[C@@H](CC(=O)O)CC[C@@H]21
(9) CC(=O)c1cccc(OCC(=O)NC2CCCCCC2)c1
(10) COc1ccc(C2CC(c3ccncc3)=NN2c2ccc(S(N)(=O)=O)cc2)cc1 (configuration not stated)
(11) C[C@@H]1CN([C@H](C)CO)C(=O)c2cc(NC(=O)Nc3ccc(F)cc3)ccc2O[C@@H](C)CCCCO[C@@H]1CN(C)Cc1ccc(C(=O)O)cc1
(12) O=C(C1CCCC1)N1CC2(C1)[C@@H](c1ccccc1)[C@@H](CO)N2CC1CCCC1

assay / entry,7,8,9,10,11,12
MLL AF4-AF9 inh,1.5,12,-3.3,-21,0.7,1.6
rRNA inh HTS,-1,2,0,-10,4,-8
rRNA inh HTS OD600,-6,2,-2,-14,-3,-30
rRNA inh HTS RFP,0.6,-1.8,-1.3,-1.5,-0.5,27

(13) C/C=C/c1ccccc1[C@@H]1[C@H](C#N)N(c2ncc(CC)s2)[C@H]1CO
(14) O=C(CC1CC1)N1CC(=O)N2[C@H](CO)[C@@H](c3ccc(C#Cc4ccccc4)cc3)[C@H]2C1
(15) C[C@@H]1CCCCO[C@@H](CN(C)C(=O)NC2CCCCC2)[C@@H](C)CN([C@@H](C)CO)C(=O)c2cc(NC(=O)Nc3ccc(F)cc3)ccc2O1
(16) CCNC(=O)C[C@H]1CC[C@@H]2[C@H](COc3ccc(NC(=O)c4ccc(C(F)(F)F)cc4)cc3C(=O)N2C)O1
(17) O=C(NCCCN1CCOCC1)[C@@H]1N[C@@H]2c3ccc(C4=CCCCC4)c(=O)n3C[C@@H]2[C@H]1CO
(18) N#Cc1cccc(-c2ccc(C3[C@H]4CNC[C@@H]3N4Cc3cccc(F)c3)cc2)c1 (some centres not stated)

assay / entry,13,14,15,16,17,18
MLL AF4-AF9 inh,1.6,-0.2,0.1,-1.4,1.1,-0.2&-1.3
rRNA inh HTS,-2,6,5,-2,-1,1&-61
rRNA inh HTS OD600,6,-3,8,3,4,6&-71
rRNA inh HTS RFP,1.5,2.2,1.7,-1.0,-2.2,1.8&-13

(19) O=C(C1CCCCC1)N1CC(=O)N2[C@@H](CO)[C@H](c3ccc(C#CCc4ccccc4)cc3)[C@@H]2C1
(20) CC(=O)N(Cc1ccccc1)C(CC(=O)NCc1ccccc1)C(=O)O (configuration not stated)
(21) C/C=C/c1ccc([C@@H]2[C@H](CO)N(CC3CC3)C23CN(S(=O)(=O)CC)C3)cc1
(22) CO[C@@H]1CN(C)C(=O)c2cc(NS(C)(=O)=O)ccc2OC[C@H](C)N(C(=O)CC2CC2)C[C@H]1C
(23) COCC(C)n1c(SCC(=O)Nc2cc(C)on2)nc2ccccc2c1=O (configuration not stated)
(24) COc1ccc2c3c([nH]c2c1)[C@@H](CO)N(C(=O)c1ccncc1)CC31CN(C)C1

assay / entry,19,20,21,22,23,24
MLL AF4-AF9 inh,0.4,-5.3,2.0,-0.1,-1.0,13
rRNA inh HTS,-6,10,-2,3,2,8
rRNA inh HTS OD600,-36,9,2,3,4,18
rRNA inh HTS RFP,23,0.2,3.3,-1.4,0.6,-2.1

(25) O=C(CC1CC1)N1CC(=O)N2[C@@H](CO)[C@H](c3ccc(-c4ccccc4)cc3)[C@@H]2C1
(26) CN(C)C(=O)c1cccc(-c2ccc(C3[C@H]4CNC[C@@H]3N4C(=O)NC3CCCC3)cc2)c1 (some centres not stated)
(27) COc1ccc(-c2ccc([C@H]3[C@H]4CN(C(=O)C5CCCC5)CC(=O)N4[C@H]3CO)cc2)cc1
(28) CCc1nc(N2[C@@H](C#N)[C@H](c3ccccc3-c3ccc(F)cc3)[C@@H]2CO)sc1C
(29) CCCNC(=O)Nc1ccc2c(c1)C(=O)N(C)C[C@H](OC)[C@@H](C)CN(CCC)[C@H](C)CO2
(30) Cc1cccc(-c2ccc(C3[C@@H]4CN(C(=O)Cc5ccncc5)C[C@H]3N4)cc2)c1 (some centres not stated)

assay / entry,25,26,27,28,29,30
MLL AF4-AF9 inh,-8.8,1.6&4.6,7.4,1.9,-2.2,9.4
rRNA inh HTS,0,6&7,1,-7,-1,2
rRNA inh HTS OD600,7,11&10,-24,-10,8,19
rRNA inh HTS RFP,-0.9,-2.1&-1.7,17,-2.0,-2.0,3.4

(31) COCC#Cc1ccc([C@@H]2[C@@H](CO)N3C(=O)CN(C(=O)C4CCCC4)C[C@H]23)cc1
(32) COCCNC(=O)[C@@H]1[C@@H](CO)[C@@H]2Cn3c(ccc(-c4ccccc4F)c3=O)[C@@H]2N1C(=O)C1CCC1
(33) COCC(=O)N1CC(=O)N2[C@H](CO)[C@H](c3ccc(C#CC4CCCC4)cc3)[C@H]2C1
(34) CC(=O)N1[C@@H]2c3ccc(-c4ccccc4)c(=O)n3C[C@H]1[C@H](CO)[C@H]2C(=O)NC1Cc2ccccc2C1
(35) O=C(Nc1cccc(F)c1)N1CC(=O)N2[C@@H](CO)[C@H](c3ccc(C#CC4CC4)cc3)[C@@H]2C1
(36) C[C@@H]1CCCCO[C@@H](CN(C)Cc2ccccc2)[C@H](C)CN([C@@H](C)CO)C(=O)c2cc(NS(=O)(=O)c3ccc(F)cc3)ccc2O1

assay / entry,31,32,33,34,35,36
MLL AF4-AF9 inh,-0.9,-2.6,0.2,0.8,-0.6,2.6
rRNA inh HTS,7,-3,2,-3,-23,3
rRNA inh HTS OD600,19,9,13,-5,-51,4
rRNA inh HTS RFP,-3.6,-3.1,-2.5,-1.7,8.5,1.0

(37) O=C(N[C@H]1CC[C@@H](CCn2cc(C3CCCC3)nn2)O[C@H]1CO)c1cccnc1
(38) Cc1ccc(S(=O)(=O)Nc2ccc3c(c2)C(=O)N([C@@H](C)CO)C[C@H](C)[C@H](CN(C)S(=O)(=O)c2ccccc2)OCCCC[C@@H](C)O3)cc1
(39) COCCN(C(=O)COC(=O)CCc1ccccc1)c1c(N)n(Cc2ccccc2)c(=O)[nH]c1=O
(40) C[C@@H]1CCCCO[C@H](CN(C)CC2CCCCC2)[C@H](C)CN([C@@H](C)CO)C(=O)c2cc(NS(C)(=O)=O)ccc2O1
(41) C/C=C/c1ccc([C@H]2[C@@H](CO)N[C@@H]2CNC(=O)Cc2ccccc2)cc1
(42) C[C@@H]1CN([C@H](C)CO)C(=O)Cc2cc(N(C)C)ccc2O[C@H]1CN(C)Cc1ccc2c(c1)OCO2

assay / entry,37,38,39,40,41,42
MLL AF4-AF9 inh,-1.8,0.2,-2.0,1.4,0.8,4.5
rRNA inh HTS,2,-2,10,3,-2,2
rRNA inh HTS OD600,7,-3,1,3,-1,2
rRNA inh HTS RFP,-1.2,2.0,1.5,0.9,3.8,-1.5

(43) OC[C@@H]1Nc2ccc(C#Cc3cccc(F)c3)cc2[C@@H]2NCC[C@H]12
(44) CN(C)CC#Cc1ccc([C@H]2[C@@H](CO)N3C(=O)CN(C(=O)Cc4ccccc4)C[C@@H]23)cc1
(45) COc1ccc2c3c([nH]c2c1)[C@@H](CO)N(Cc1ccccc1OC)CC31CN(C(C)=O)C1
(46) O=C1CN(S(=O)(=O)Cc2ccccc2)C[C@@H]2[C@@H](c3ccc(C#Cc4ccccc4)cc3)[C@H](CO)N12
(47) O=C(NCC[C@@H]1CC[C@@H](NS(=O)(=O)c2ccc(Cl)cc2)[C@@H](CO)O1)Nc1ccc(F)cc1
(48) CN(C)C(=O)c1cccc(-c2ccccc2[C@H]2[C@@H](C#N)N(C(=O)C3CCCC3)[C@@H]2CO)c1

assay / entry,43,44,45,46,47,48
MLL AF4-AF9 inh,?,-1.5,-8.2,-1.6,15,0.0
rRNA inh HTS,4,3,2,-2,-2,2
rRNA inh HTS OD600,12,7,7,0,2,14
rRNA inh HTS RFP,1.3,-0.2,1.0,2.1,3.9,-0.9

(49) N#Cc1cccc(-c2ccc(C3[C@@H]4CN(S(=O)(=O)c5ccccc5)C[C@H]3N4)cc2)c1 (some centres not stated)
(50) COc1ccc2c3c([nH]c2c1)[C@H](CO)N(Cc1cccc(F)c1)CC31CCN(CC2CC2)CC1
(51) O=C(c1ccncc1)N1CC(=O)N2[C@H](CO)[C@@H](c3ccc(-c4ccccc4)cc3)[C@H]2C1
(52) COc1ccc(NC(=O)N2CC(=O)N3[C@H](C2)[C@H](c2ccc(-c4ccc(C)cc4)cc2)[C@@H]3CO)cc1
(53) C[C@@H]1CCCCO[C@H](CN(C)Cc2ccc3c(c2)OCO3)[C@@H](C)CN([C@@H](C)CO)C(=O)c2cc(NS(=O)(=O)c3ccc(F)cc3)ccc2O1
(54) CN1C(=O)c2cc(NC(=O)c3ccc4c(c3)OCO4)ccc2OC[C@H]2O[C@@H](CC(=O)O)CC[C@@H]21

assay / entry,49,50,51,52,53,54
MLL AF4-AF9 inh,-2.5&-0.8,35*,2.0,2.9,8.2,-2.2
rRNA inh HTS,-2&-7,4,-1,3,6,1
rRNA inh HTS OD600,13&-18,5,12,-15,-16,14
rRNA inh HTS RFP,-0.5&1.0,-1.4,-0.7,9.1,7.1,-1.2

(55) CC(C)(CN1CCCN(CC(C)(C)C(=O)O)C1=O)C(=O)O
(56) COC(=O)C[C@@H]1C[C@@H]2c3cc(NC(=O)Nc4ccc(OC)cc4)ccc3O[C@@H]2[C@@H](CO)O1
(57) O=C(C[C@H]1CC[C@H](NC(=O)c2ccncc2)[C@H](CO)O1)Nc1ccc(-c2ccccc2)cc1
(58) C[C@@H]1CN([C@H](C)CO)C(=O)c2c(c3ccccc3n2C)-c2ccccc2CO[C@H]1CN(C)C(=O)Nc1ccccc1C(F)(F)F
(59) COCC(=O)Nc1ccc2c(c1)OC[C@H](C)N(CCC(F)(F)F)C[C@@H](C)[C@H](OC)CN(C)C2=O
(60) COCC(=O)N1[C@H](C(=O)N2CCN(C)CC2)[C@@H](CO)[C@@H]2Cn3c(ccc(C4=CCCC4)c3=O)[C@@H]21

assay / entry,55,56,57,58,59,60
MLL AF4-AF9 inh,-6.4,-2.1,-2.1,2.7,1.0,-3.1
rRNA inh HTS,17,3,-7,0,0,5
rRNA inh HTS OD600,16,14,-5,0,-1,3
rRNA inh HTS RFP,2.7,-2.0,-2.4,-1.0,-1.3,-1.1

Of the compounds above, these have a Cl atom:
(2) C[C@H](CO)N1C[C@H](C)[C@@H](CN(C)C(=O)Nc2cccc(Cl)c2Cl)OCc2ccccc2-c2c(n(C)c3ccccc23)C1=O
(7) C[C@@H]1CCCCO[C@@H](CN(C)S(=O)(=O)c2ccc(Cl)cc2)[C@H](C)CN([C@H](C)CO)C(=O)c2cc(NC(=O)C3CCCCC3)ccc2O1
(47) O=C(NCC[C@@H]1CC[C@@H](NS(=O)(=O)c2ccc(Cl)cc2)[C@@H](CO)O1)Nc1ccc(F)cc1

assay / entry,2,7,47
MLL AF4-AF9 inh,0.2,1.5,15
rRNA inh HTS,3,-1,-2
rRNA inh HTS OD600,1,-6,2
rRNA inh HTS RFP,0.4,0.6,3.9

(further entries)
(61) O=C(C1CCC1)N1CC(=O)N2[C@H](CO)[C@@H](c3ccc(-c4cccnc4)cc3)[C@@H]2C1
(62) COc1cccc(-c2ccc3c(c2)[C@H]2[C@H](CCN2C(=O)NC2CCCCC2)[C@H](CO)N3C)c1
(63) O=S(=O)(Cc1ccccc1)N1CCCCN2[C@H](C1)[C@@H](c1ccc(-c3cncnc3)cc1)[C@@H]2CO
(64) O=C(Nc1nccs1)[C@@H]1[C@@H](CO)[C@@H]2Cn3c(cccc3=O)[C@H]1N2C(=O)C1CCCCC1

assay / entry,61,62,63,64
MLL AF4-AF9 inh,-3.8,15,-9.8,-3.6
rRNA inh HTS,4,-13,-3,7
rRNA inh HTS OD600,13,-34,8,7
rRNA inh HTS RFP,1.4,34,-0.5,-3.4

Compound activity (PubChem BioAssay)

An excerpt; rates above refer to the full screens.
